High-throughput results: PubChem BioAssay, National Center for Advancing Translational Sciences (NCATS)
N370S GC mod – N370S glucocerebrosidase modulation, Gaucher chaperone candidate. N370S GC spleen homogenate, 4MU-glucoside fluorescence. Potency, µM (top dose mostly 59.4 µM), inactives show at the highest dose activity change, negative = inhibition, most hits filed as inhibitors. hit rate 0.092% among 330,000;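 also: 0% = full enzyme activity and -100% = no enzyme basal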
TDP1 inh – blocks human tyrosyl-DNA phosphodiesterase 1; recombinant TDP1, AlphaScreen DNA substrate cleavage; hit rate 0.28% among 350,000; Q9NUW8; AID 485290; Potency, µM (series often up to 130 µM), without a hit: at the highest dose activity change, negative = inhibition, hits mostly inhibitors; also: nearly all actives have a fitted effect of over 40% in size
Target sequence (Q9NUW8 whole entry, looked up): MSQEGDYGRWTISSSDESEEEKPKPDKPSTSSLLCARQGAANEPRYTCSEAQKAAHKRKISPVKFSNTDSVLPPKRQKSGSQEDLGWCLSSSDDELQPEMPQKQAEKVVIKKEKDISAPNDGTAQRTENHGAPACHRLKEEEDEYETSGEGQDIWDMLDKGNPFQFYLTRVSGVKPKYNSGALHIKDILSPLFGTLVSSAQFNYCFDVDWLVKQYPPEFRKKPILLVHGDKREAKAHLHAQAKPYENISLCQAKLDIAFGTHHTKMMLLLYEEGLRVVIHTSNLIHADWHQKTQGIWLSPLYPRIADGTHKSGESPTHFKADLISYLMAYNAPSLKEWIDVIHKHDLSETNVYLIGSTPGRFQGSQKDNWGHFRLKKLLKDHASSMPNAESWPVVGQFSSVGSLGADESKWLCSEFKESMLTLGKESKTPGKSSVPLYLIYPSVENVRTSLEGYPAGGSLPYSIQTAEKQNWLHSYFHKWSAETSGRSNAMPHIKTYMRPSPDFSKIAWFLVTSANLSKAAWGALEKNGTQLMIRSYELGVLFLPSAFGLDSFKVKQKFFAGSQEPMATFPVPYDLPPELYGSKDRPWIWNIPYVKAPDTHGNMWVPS
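E. coli-derived human Tdp1, 1 nM final. Cpd preinc 15 min RT; substrate 15 nM final, 5 min RT; AS bead mix 10 ug/ml final, 10 min RT. Signal loss = tyrosine-FITC cleavage. No-enzyme wells = max signal.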
Active calls of the source: *; ? = inconclusive; nt = not tested or not shown; & = joins results of further samples; [ ] = remark or other dose. Calls follow the shape of the dose curve; as a rule, active = well fitted curve in the direction sought with a large enough effect; inconclusive = small, poorly fitted or top-dose-only effect, or another doubt; inactive = no such curve, though single readings can be large; an effect the other way counts as inactive or inconclusive. Unless noted, % is scaled to controls: 0 for no effect and ±100 for the full control effect; potency is read from the fitted curve at half-maximal effect. This is a subset, and most or all hits are left out here.

SMILES	N370S GC mod	TDP1 inh
Fc1cccc(F)c1CN1CCN(Cc2c(F)cccc2F)CC1	1%	4%
CCCCn1c(O)c(C=NCCCN(CC)CC)c(=O)[nH]c1=O	2%	0%
O=c1c2cc(Cl)cc(Cl)c2nc(CN2CCOCC2)n1-c1ccccc1F	8%	3%
COc1ccc(OCC#CCN2CCNCC2)cc1	-14%	nt
CC(C)OC(=O)c1c(N)n(Cc2ccco2)c2nc3ccccc3nc12	-8%	5%
O=C(Nc1nccs1)c1c(O)c2c(n(Cc3ccco3)c1=O)CCCC2	25%	-2%
O=C1NC(c2cc3ccccc3nc2Cl)Nc2ccccc21 (stereo not given)	6%	5%
COC(=O)C(C)NC(=S)N1CC2C[C@@H](C1)Cn1c2cccc1=O (stereo not given in full)	-22%	nt
CCCOc1ccccc1C1SCC(=O)Nc2c1c(=O)[nH]n2C(C)CCC (stereo not given)	7%	6%
Clc1cccc(CNCCc2c[nH]c3ccccc23)c1	-27%	nt
CC(=NCCO)c1c(O)n(C)c(=O)n(C)c1=O	-2%	2%
CCN1C[C@]2(COC)CC[C@H](OC)[C@@]34C5C[C@@H]6[C@@H](OC)C[C@@]7(OCO[C@@]7([C@@H](O)C23)[C@@H]14)C5[C@H]6OC (stereo not given in full)	5%	5%
O=C(c1ccc2c(c1)N(Cc1ccccc1)CCS2)N1CCC2(CC1)OCCO2	15%	6%
COc1ccc(OC)c(NC(=O)N2C[C@H]3C[C@@H](C2)c2cccc(=O)n2C3)c1	-9%	nt
CC(C)N1CC=C(c2c[nH]c3ccccc23)CC1	?	-1%
CCC(=O)CC(c1ccccc1)c1c(O)c2ccccc2sc1=O (stereo not given)	9%	2%
CCN(CC)C(=O)c1ccc(NC(=O)c2cn(-c3ccccc3)nc2-c2ccc(OC)cc2)cc1	-3%	3%
COc1cccc(CC(=O)N2CCN(Cc3cccc(Cl)c3)CC2)c1	-15%	nt
O=C1CC(=O)N(c2cccc(Br)c2)C(=O)N1	-5%	nt
Cc1nn(C2CCOC(C)(C)C2)c2c1C(c1ccc(OC(C)C)cc1)SCC(=O)N2 (stereo not given)	-3%	6%
NC(Cc1ccccc1)Cc1ccccc1	9%	6%
N=C1c2ccccc2CN1NC(=O)c1ccc(Br)cc1	12%	2%
CC1CCCCN1C(=O)c1ccc(N2CC3CC(C2)c2cccc(=O)n2C3)c([N+](=O)[O-])c1 (stereo not given)	-4%	3%
Cn1c(O)c(C(=O)c2ccccc2)c(=O)n(C)c1=O	-3%	0%
CN1CCN(Cc2cc3c(cc2[N+](=O)[O-])OCO3)CC1	3%	nt
Cc1ccc(NC(=O)c2ccc(C)c(S(=O)(=O)N3CCCCC3)c2)nc1	-10%	nt
COc1ccc(CN2CCCC(C(=O)c3cccc(Cl)c3)C2)cc1 (stereo not given)	-9%	nt
Cc1ccc2c(c1)CC1(CN2C)C(=O)NC(=O)N(c2cccc(C)c2C)C1=O (stereo not given)	1%	3%
CN(C)P(=NC(=S)c1cccn1C)(N(C)C)N(C)C	7%	6%
CCN(C(=O)COC(=O)c1cn(C)c2ccccc12)c1ccc(F)cc1	nt	-2%
O=c1[nH]c2ccccc2n1CCCN1CCC(n2c(=O)[nH]c3cc(Cl)ccc32)CC1	-13%	5%
COc1cc(C(C)=O)ccc1OC(=O)N(C)c1ccccc1	-8%	nt
CCCCn1c(N)c(C(=O)OCC2CCCO2)c2nc3ccccc3nc21 (stereo not given)	?	2%
Cc1ccc(NC2=NCCCS2)cc1Cl	-10%	10%
CC(=NCCCO)c1c(O)n(Cc2ccccc2)c(=O)[nH]c1=O	3%	-2%[56.1 µM]
O=[N+]([O-])c1ccc(Cl)c(Cl)c1	-11%	6%
Cc1cccc(C)c1NC(=O)CN(C)CC(=O)Nc1ccc(C#N)c(Cl)c1	-11%	3%
CNC(=O)Nc1ccc(C(O)(C(=O)OC)C(F)(F)F)cc1 (stereo not given)	-1%	nt
Cc1cc(C)n2nc(SCC(=O)N3CCC4(CC3)OCCO4)nc2n1	1%	4%
O=P(O)(Oc1ccccc1)OC(c1ccccc1)C(F)(F)F (stereo not given)	-5%	-2%

Gathered by group: those above with nitrogen in an aromatic ring.
SMILES	N370S GC mod	TDP1 inh
CCCCn1c(O)c(C=NCCCN(CC)CC)c(=O)[nH]c1=O	2%	0%
O=c1c2cc(Cl)cc(Cl)c2nc(CN2CCOCC2)n1-c1ccccc1F	8%	3%
CC(C)OC(=O)c1c(N)n(Cc2ccco2)c2nc3ccccc3nc12	-8%	5%
O=C(Nc1nccs1)c1c(O)c2c(n(Cc3ccco3)c1=O)CCCC2	25%	-2%
O=C1NC(c2cc3ccccc3nc2Cl)Nc2ccccc21 (stereo not given)	6%	5%
COC(=O)C(C)NC(=S)N1CC2C[C@@H](C1)Cn1c2cccc1=O (stereo not given in full)	-22%	nt
CCCOc1ccccc1C1SCC(=O)Nc2c1c(=O)[nH]n2C(C)CCC (stereo not given)	7%	6%
Clc1cccc(CNCCc2c[nH]c3ccccc23)c1	-27%	nt
CC(=NCCO)c1c(O)n(C)c(=O)n(C)c1=O	-2%	2%
COc1ccc(OC)c(NC(=O)N2C[C@H]3C[C@@H](C2)c2cccc(=O)n2C3)c1	-9%	nt
CC(C)N1CC=C(c2c[nH]c3ccccc23)CC1	?	-1%
CCN(CC)C(=O)c1ccc(NC(=O)c2cn(-c3ccccc3)nc2-c2ccc(OC)cc2)cc1	-3%	3%
Cc1nn(C2CCOC(C)(C)C2)c2c1C(c1ccc(OC(C)C)cc1)SCC(=O)N2 (stereo not given)	-3%	6%
CC1CCCCN1C(=O)c1ccc(N2CC3CC(C2)c2cccc(=O)n2C3)c([N+](=O)[O-])c1 (stereo not given)	-4%	3%
Cn1c(O)c(C(=O)c2ccccc2)c(=O)n(C)c1=O	-3%	0%
Cc1ccc(NC(=O)c2ccc(C)c(S(=O)(=O)N3CCCCC3)c2)nc1	-10%	nt
CN(C)P(=NC(=S)c1cccn1C)(N(C)C)N(C)C	7%	6%
CCN(C(=O)COC(=O)c1cn(C)c2ccccc12)c1ccc(F)cc1	nt	-2%
O=c1[nH]c2ccccc2n1CCCN1CCC(n2c(=O)[nH]c3cc(Cl)ccc32)CC1	-13%	5%
CCCCn1c(N)c(C(=O)OCC2CCCO2)c2nc3ccccc3nc21 (stereo not given)	?	2%
CC(=NCCCO)c1c(O)n(Cc2ccccc2)c(=O)[nH]c1=O	3%	-2%[56.1 µM]
Cc1cc(C)n2nc(SCC(=O)N3CCC4(CC3)OCCO4)nc2n1	1%	4%

Following part.
SMILES	N370S GC mod	TDP1 inh
Cc1cc(C=C2C(=O)NC(=O)NC2=O)c(C)n1-c1ccc2c(c1)OCO2	-6%	0%
C[C@]12CCC(=O)C=C1CC[C@@H]1C2[C@H](O)C[C@]2(C)C(=O)CCC12 (stereo not given in full)	-20%	nt
Cc1cc(C(=O)NP(=O)(N2CCOCC2)N2CCOCC2)c(C)n1C1CC1	16%	0%
CC(=O)[C@@]1(O)CC[C@H]2[C@@H]3CC=C4C[C@@H](O)CC[C@]4(C)[C@H]3CC[C@@]21C	-10%	-3%
COc1cc(CN2CCSCC2)cc(OC)c1OC	-3%	?
O=c1[nH]c(=S)n(-c2cccc(Cl)c2)c(O)c1C=NCCN1CCNCC1	-2%	nt
CCC1(c2ccc(N)cc2)CCC(=O)NC1=O (stereo not given)	-1%&-3%	9%[56.1 µM]
COc1ccccc1CCNC1CCCCCC1	-9%	nt
COc1cccc(N2CCN(Cc3cccc(Cl)c3)CC2)c1	-3%	3%
COc1ccc(OC)c(N2C(=O)NC(=O)/C(=C/c3ccc([N+](=O)[O-])s3)C2=O)c1	0%	3%
CC[n+]1c(SC)ccc2cc(OC)ccc21	4%	0%
Cc1ccc(C)c(OCC(=O)N2CCN(Cc3ccc4c(c3)OCO4)CC2)c1	14%	0%
CCc1ccccc1N1C(=O)NC(=O)/C(=C\c2cc(C)n(C)c2C)C1=O	-4%	5%
CCCc1c(C)nc(-c2ccc(C)cc2)nc1OC(=O)N(C)C	10%	nt
CC(=O)OC1(Cc2ccccc2)CN2CCC1c1ccccc12 (stereo not given)	3%	7%
O=C1NC(=O)C(CCc2ccncc2)(Cc2ccc(OCc3ccccc3)cc2)C(=O)N1	28%	4%
CC(=NCCCN1CCCCC1)c1c(O)n(Cc2ccccc2)c(=O)[nH]c1=O	24%	-2%
C=Cn1ccnc1P(O)(=S)c1nc(C)c(CCOC(C)=O)s1 (stereo not given)	0%	0%
CCC12C=CCN3CCC4(c5cc(Br)c(OC)cc5N(C)C4C(O)(C(=O)OC)C1OC(C)=O)C32 (stereo not given)	14%	1%
CC(=O)N1N=C2C3CCN(CC3)C2C1c1ccccc1 (stereo not given)	-12%	7%
O=C(O)c1ccc(N=Cc2c(O)[nH]c(=O)[nH]c2=O)cc1	6%	nt
CNC(=O)O/N=C/c1nn(C(=O)C(C)(C)C)cc1Br	-9%	-1%
CCn1cc(CN2CCCC(C(=O)c3sccc3C)C2)cn1 (stereo not given)	-18%	nt
CN1CCC(N(C)Cc2cccnc2)CC1	3%	-10%
CCCCCn1c(=O)c(C(=O)NCc2ccccc2)c(O)c2ccccc21	0%	-11%
CCC(=O)OC1CCC2C3CCC4=CC(=O)CC[C@@]4(C)C3CC[C@]12C (stereo not given in full)	10%	6%[56.1 µM]
CCc1ccc(NC(=O)CN2CC(c3ccccc3)CC2=O)cc1 (stereo not given)	2%	nt
Nc1c(Cl)cc([N+](=O)[O-])cc1Cl	-15%&-3%	-2%&3%
CCCCn1c(C)c(C(=O)OCC)c2c(CN3CCOCC3)c(O)ccc21	-6%	2%
CCn1c(C(=O)N2CCC(C(=O)N3CCC4(CC3)OCCO4)CC2)cc2sccc21	7%	-4%
NS(=O)(=O)c1ccc(N=Nc2c(O)[nH]c(=S)[nH]c2=O)cc1	-27%	-5%
CC(C)CCC1(CCc2ccncc2)C(=O)NC(=O)NC1=O	5%	-5%
CCc1ccccc1NC(=O)CNC1CCCCC1	14%	0%
O=c1c2ccccc2[nH]c(=S)n1-c1cccnc1	11%	4%
N[C@@]1(C(=O)O)CC[C@@H](C(=O)O)C1	-4%&1%	4%
C[C@@]12C(=O)OC(=O)[C@]1(C)[C@H]1CC[C@@H]2O1	10%[21.6 µM]	12%[21 µM]
CCOP(=O)(OCC)/C(C#N)=C/c1ccoc1	-3%	3%
CC/C(=N\NC(=O)c1ccccc1)c1c(O)n(C2CCCCC2)c(=O)[nH]c1=O	-3%	3%
CC(=O)OC1(c2ccccc2)CCN(C)CC1(C)C (stereo not given)	6%	6%
ClCCOCOCCCl	-1%	0%&3%
COc1ccc(C(=O)N2CCCC2=O)cc1	13%&4%&10%&9%	3%
C=CCn1c(O)c(C(CC)=NCCN2CCN(C(=S)NC)CC2)c(=O)[nH]c1=O	0%	2%
O=C(c1ccc(Cl)cc1)C1CCCN(Cc2cccc3ncccc23)C1 (stereo not given)	8%	nt
CCN1CCN(c2ccc(N)cc2C)CC1	-3%	4%
COc1ccc(CC(=O)N2C[C@H]3C[C@@H](C2)c2cccc(=O)n2C3)cc1	-13%	nt
Clc1ccc(N2CCN(Cc3ccccc3Cl)CC2)cc1	-3%	-7%
N#CC(C#N)=C(N)c1cccnc1	13%	5%
Cc1cccc(OP(N)(=O)Oc2cccc(C)c2)c1	2%	4%
C=C[C@]12CN(C)[C@H]3C1[C@@]1(C(=O)Nc4ccccc41)[C@H]1C[C@H]2[C@H]3CO1	3%[21.6 µM]	13%[21 µM]
